# Source: PubChem (several laboratories)
# Autofluor counter: compound fluorescence in toxin protease inhibitor counterscreen. hit rate 3.1% among 360,000. AID 624483. compound autofluorescence counterscreen, microsphere flow cytometry; active compounds read high. fluorescence intensity (concentration not given with the values);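 active = at least 3 SD above the mean of all compounds, about 16000 in these data; inconclusive = too few beads counted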;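 note: 100 nL of 1 mM stock went into each well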
# BJeLR lethal: kills HRASV12-expressing BJeLR cells. BJeLR (HRASV12) viability, CellTiter-Glo ATP luminescence, 48 h; reference of the scale not given here. inhibition, % (test concentration not listed). hit rate 0.17% among 300,000. AID 1554;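 active = replicate mean above 50%; inconclusive = above 50% but judged a plate artefact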;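 note: 50 nL library stock added to about 25 µL; numbers are from one replicate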
# Mtb hypoxia inh: Mtb hypoxia fluorescent reporter inhibition. hit rate 0.1% among 300,000. fluorescence inhibition, % (concentration not given with the values). AID 1159583. M. tuberculosis hypoxia-regulated fluorescent reporter, fluorescence;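 active = 35 to 45% if threefold the growth effect, above 45% if 1.5-fold the growth effect; inactive = the rest, general growth blockers included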;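 note: wells of about 50 µL received 100 nL stock; 0% = vehicle wells and 100% = reference inhibitor wells; whole bacteria with a GFP reporter of the hypoxia response; strong numbers were not always called active; many hits fall short of the cut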
# Sa RN4220 lethal: kills Staphylococcus aureus RN4220; inhibition, % (no concentration beside the values); S. aureus RN4220 growth, OD600, 16 h; hit rate 0.33% among 330,000;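 active = z-score of -3 or lower and OD600 up to 0.18 on both plates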;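 note: plate controls were untreated cells for no effect and reference antibiotic for full effect; stock transfer was 100 nL into about 80 µL; one replicate is shown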
# ugtP null kill: growth inhibition of S. aureus ugtP deletion strain; S. aureus RN4220 ugtP deletion, OD600 growth, 16 h; some inactives read as strong as hits; growth inhibition, % (test concentration not listed); hit rate 0.54% among 330,000;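 active = z-score under -3 and OD600 up to 0.15 on both plates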;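 note: plate controls were untreated wells for no effect and antibiotic for full effect; wells of about 80 µL received 100 nL stock; the first replicate is given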
# PrP UTR inh: inhibition of PrP 5' UTR reporter expression. cell-based PrP 5' UTR mRNA reporter, plate reader. inhibition, % (concentration not given with the values). hit rate 0.35% among 340,000. AID 488862;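 active = every replicate at 50% or more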;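 note: 0 = median of the neutral control wells; tested in H4 reporter cells; numbers are from one replicate; inactives centre near -14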
# Mtb hypoxia inh growth: also measured in Mtb hypoxia inh; calls as there; growth inhibition, %; measured here: M. tuberculosis growth (absorbance);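 0% = vehicle and 100% = reference antibiotic; read after six days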
# Active calls of the source: *; ? = inconclusive; . = not tested or not shown.
cpd	Structure	Autofluor counter	BJeLR lethal	Mtb hypoxia inh	Mtb hypoxia inh growth
1	O=C(CN1CCCN(S(=O)(=O)c2ccc(Br)cc2)CC1)Nc1ccc2c(c1)OCO2	.	-3	4	3
2	O=C(N1CCCCC1)N1CCCN(C(=O)N2CCCCC2)CC1	2798	3	.	.
3	COc1ccc(S(=O)(=O)N(C)C[C@H]2Oc3ccc(NS(=O)(=O)c4ccccc4)cc3CC(=O)N([C@H](C)CO)C[C@@H]2C)cc1	3820	.	-14	8
4	CC(=O)Nc1ccc(S(=O)(=O)Nc2nccc(/C=C/c3ccc(Cl)cc3)n2)cc1	2880	-1	-9	4
5	COc1ccccc1-n1cc(CN2CCN(CC=C(C)C)C(CCO)C2)cn1 (stereo not drawn)	4851	-3	-6	-4
6	CC(C(=O)NCCS(=O)(=O)c1ccc(Br)cc1)S(=O)(=O)c1ccc(Cl)cc1 (stereo not drawn)	3079	-5	7	2
7	CC(C)(C)NC(=O)CN(C(=O)CS(=O)CC(=O)Nc1ccc(F)cc1)c1ccc(F)c(Cl)c1 (stereo not drawn)	20160*	-9	14	8
8	Cc1ccc(C)c(NC(=O)c2nnn(Cc3ccccc3C)c2N)c1	23851*	2	17	6

cpd	Sa RN4220 lethal	ugtP null kill	PrP UTR inh
1	-1.0	-1	.
2	-0.4	4	-22
3	-15	-12	-33
4	5.4	-2	-24
5	2.4	1	-45
6	0.7	8	-8
7	2.0	1	-2
8	-1.8	9	-15

# Further compounds follow:
cpd	Structure	Autofluor counter	BJeLR lethal	Mtb hypoxia inh	Mtb hypoxia inh growth
9	COc1ccc(CCNC(=S)N2CCN(S(=O)(=O)c3cccc(F)c3)CC2)cc1	5488	-1	3	3
10	Cc1nnc(C)c2c(C)n(-c3ccc4ncccc4c3)c(C)c12	4391	-4	1	2
11	Cc1ccc(C(=O)c2cn[nH]c2-c2cc(Cl)ccc2O)cc1	5713	-1	14	9
12	O=C(Nc1ccnc(-c2cccnc2)n1)c1ccc(Cl)c(Cl)c1	10789	-7	1	1
13	COc1ccc(OC)c(NC(=O)c2csc(Cl)c2OC)c1	3310	-2	0	6
14	CN1CCN(c2ccc(Cl)cc2N)CC1	4744	-20	17	-3
15	CCN(C(=O)COc1ccc(C(=O)c2ccccc2)cc1)c1ccccc1	3285	-3	1	1
16	C=CCN(CC=C)C(=O)CN1C(=O)NC(c2ccccc2)(c2ccccc2)C1=O	3891	-10	2	0

cpd	Sa RN4220 lethal	ugtP null kill	PrP UTR inh
9	4.7	1	-19
10	3.1	1	-13
11	12	-14	-17
12	-0.4	11	-50
13	18	-7	-8
14	1.0	4	-16
15	4.2	19	-13
16	1.5	5	7

# Next part
cpd	Structure	Autofluor counter	BJeLR lethal	Mtb hypoxia inh	Mtb hypoxia inh growth
17	CCOC(=O)C1(CCOc2ccccc2)CCN(Cc2cccc(-n3cccn3)c2)CC1	5335	11	-2	11
18	Cc1cc(C)n(C(=O)c2cc3c(s2)CCCC3)n1	4926	-14	.	.
19	COC(=O)Cc1cc(=O)[nH]c(/N=C(\N)Nc2ccccc2C)n1	11100	-9	.	.
20	Cc1ccc(SCCNC(=O)c2cccc([N+](=O)[O-])c2C)cc1	?	-6	.	.
21	Cn1c(COc2ccccc2O)[n+](C)c2ccccc21	2878	8	9	-7
22	Cc1cccc(NC(=O)c2ccccc2OCC(=O)N2CCOCC2)c1C	9708	-1	15	4
23	COc1cccc(-n2c(CN3CCN(c4ccccc4)CC3)nc3ccc([N+](=O)[O-])cc3c2=O)c1	9297	0	0	13
24	CC(C)c1cc(N2CCN(C(=O)c3ccco3)CC2)n2c(nc3ccccc32)c1C#N	4376	-5	2	1

cpd	Sa RN4220 lethal	ugtP null kill	PrP UTR inh
17	-3.3	12	-3
18	15	22	-1
19	.	.	-8
20	3.0	0	-11
21	-1.7	0	1
22	6.4	-4	-10
23	-4.8	2	-28
24	-0.4	8	-17

# The list continues:
cpd	Structure	Autofluor counter	BJeLR lethal	Mtb hypoxia inh	Mtb hypoxia inh growth
25	COc1ccc(N2CCN(C(=O)CCCN3C(=O)c4cccc5cccc(c45)C3=O)CC2)cc1	6230	-3	-6	-5
26	Cc1ccc(C)c(NC(=O)c2cc(C)nc3ccccc23)c1	3677	-11	4	3
27	Cc1ccc(C(=O)Nc2ccncc2)o1	8256	-1	1	8
28	O=C(Nc1ccccc1C(F)(F)F)N1CCN(c2ccc3nncn3n2)CC1	20519*	8	2	-1
29	COc1ccccc1CNC(=O)CN1C(=O)CSc2ccc(S(=O)(=O)N3CCCC3)cc21	4218	0	13	12
30	CC(C)(C)C(=O)c1no[n+]([O-])c1/C(=N/O)C(C)(C)C	3230	-8	.	.
31	COc1cccc(NC(=O)COC(=O)Cn2c(C)csc2=O)c1	3492	.	6	-1
32	CCCC(=O)Nc1ccc(NC(=O)c2ccccc2F)cn1	3358	5	-1	6

cpd	Sa RN4220 lethal	ugtP null kill	PrP UTR inh
25	-2.4	6	-19
26	3.7	1	-15
27	3.4	7	-43
28	4.1	3	-19
29	8.4	6	-11
30	.	.	-4
31	8.5	3	-27
32	1.5	6	-25

# (listing goes on)
cpd	Structure	Autofluor counter	BJeLR lethal	Mtb hypoxia inh	Mtb hypoxia inh growth
33	O=Cc1cc(N=Nc2cccc(C(=O)O)c2)ccc1O	2538	20	17	7
34	COC(=O)Cn1cnc(C(=O)Nc2ccc(C)c(C)c2)n1	3644	.	-11	0
35	O=C(c1sc2cccc(F)c2c1Cl)N1CCN(c2ncccn2)CC1	2242	9	7	3
36	CC(N=Cc1c(O)c2ccccc2oc1=O)C(=O)O (stereo not drawn)	4765	1	1	1
37	COc1ccc(N2CCN(C(=O)CNC(=O)c3ccccc3Cl)CC2)cc1	3735	5	15	0
38	C1CCc2c(c(N3CCOCC3)nc3sc4c(N5CCOCC5)nnnc4c23)C1	5676	.	17	4
39	CNC(=O)CSc1nc2cccnc2n1-c1ccc(F)cc1	4006	1	11	7
40	COc1cc(NC(=O)NCCN2CCN(c3ccccc3)CC2)cc(OC)c1OC	3883	6	-4	-3

cpd	Sa RN4220 lethal	ugtP null kill	PrP UTR inh
33	2.2	7	-30
34	2.7	2	-14
35	5.6	14	-13
36	11	-2	-5
37	-7.5	12	-24
38	5.5	17	-10
39	-0.4	5	-12
40	-1.2	4	-9

# Other compounds follow:
cpd	Structure	Autofluor counter	BJeLR lethal	Mtb hypoxia inh	Mtb hypoxia inh growth
41	Cn1ccc(NC(=O)CCl)n1	4374	-12	17	19
42	O=C(c1ccc([N+](=O)[O-])o1)N1CCc2ccccc21	4483	-7	.	.
43	Cc1ccc(C)n1-c1nc(=S)[nH][nH]1	16597*	3	1	-1
44	Cc1ccc(CNC(=O)C2(S(=O)(=O)c3ccc(C)cc3)CC2)cc1	6038	0	-1	-6
45	O=C1CS/C(=C\[N+](=O)[O-])N1c1ccc(OC(F)(F)F)cc1	5998	-3	10	6
46	O=C(Cn1cc(C(=O)C2CC2)c2ccccc21)Nc1ccccc1Cl	4030	12	9	-11
47	COc1cc(-c2noc(C)c2C(=O)NCc2ccc(C)o2)cc(OC)c1OC	4113	.	-2	7
48	Cc1cc(NC(=O)CCCC(=O)N(c2ccccc2)C(C(=O)NC2CCCCC2)c2cccs2)no1 (stereo not drawn)	4359	1	7	18

cpd	Sa RN4220 lethal	ugtP null kill	PrP UTR inh
41	2.7	-1	-25
42	20	26	1
43	0.4	-1	-9
44	3.4	4	-17
45	8.6	1	-25
46	-0.7	0	-23
47	7.3	1	-23
48	2.8	-5	-6

# New compounds follow
cpd	Structure	Autofluor counter	BJeLR lethal	Mtb hypoxia inh	Mtb hypoxia inh growth
49	O=C(NC1CC1)C1CCCN(C(=O)Nc2ccc(F)cc2)C1 (stereo not drawn)	6759	-7	9	14
50	Cc1cc(=O)oc(C)c1C(=O)NCc1cccnc1	9532	1	2	3
51	COc1ccc(OC)c(C=c2sc3nc(-c4cccs4)nn3c2=O)c1	.	.	-2	-7
52	O=C(CNC(=O)N1CC(=O)Nc2ccccc21)Nc1ccc(F)c(Cl)c1	5678	7	-2	-1
53	COc1ccc(N(CC(=O)Nc2cc(OC)cc(OC)c2)S(=O)(=O)c2c(C)n[nH]c2C)cc1	4535	2	-2	-1
54	Cc1cc(SCc2ccccc2C)nc(=O)[nH]1	4413	7	13	-1
55	CCOCCCN(C(=O)c1snc(C(N)=O)c1N)C(C(=O)NCCC(C)C)c1ccc(Cl)cc1 (stereo not drawn)	4024	1	10	9
56	CC(C)C1Oc2cc3oc(=O)ccc3cc2C1=O (stereo not drawn)	3245	10	8	6

cpd	Sa RN4220 lethal	ugtP null kill	PrP UTR inh
49	4.0	6	-15
50	5.5	6	-5
51	3.9	-4	.
52	-4.2	2	-16
53	26	9	-6
54	5.7	16	-6
55	0.5	0	-20
56	0.9	1	-21

# Other structures.
cpd	Structure	Autofluor counter	BJeLR lethal	Mtb hypoxia inh	Mtb hypoxia inh growth
57	CSc1ncccc1C(=O)NCc1nnc2ccccn12	2936	.	8	7
58	O=C1OCCN1C(=O)[C@H]1[C@H](c2ccc(F)cc2)C(c2ccccc2)=NN1c1ccccc1	3923	.	1	5
59	Fc1ccccc1-c1n[nH]c(=S)n1Cc1ccccc1	3135	-5	10	3
60	O=C(O)/C(=C\c1ccco1)NC(=O)c1ccccc1	10536	-1	2	1
61	Cc1cc(C)c(C)c(S(=O)(=O)ON2C(=O)c3ccccc3C2=O)c1C	5345	-1	-12	-4
62	O=C(CN(Cc1ccco1)C(=O)c1cccc(Cl)c1)Nc1c(Cl)cc(Cl)cc1Cl	9205	-3	-1	7
63	Cn1c(=O)oc2cc(S(=O)(=O)N3CCN(c4ccccc4F)CC3)ccc21	5732	-5	-10	4
64	COc1cccc(C2=CC(=O)CC(C)(C)C2)c1OC	3396	.	10	2

cpd	Sa RN4220 lethal	ugtP null kill	PrP UTR inh
57	-1.0	-4	-15
58	-8.9	16	-25
59	2.8	-1	-8
60	4.7	9	-4
61	1.4	-2	-10
62	6.8	-10	-13
63	-2.5	-7	-25
64	7.8	3	-25

# Remaining list, next part.
cpd	Structure	Autofluor counter	BJeLR lethal	Mtb hypoxia inh	Mtb hypoxia inh growth
65	CCC1CCCCN1C(=O)c1ccccc1OC1CCN(S(C)(=O)=O)CC1 (stereo not drawn)	4362	-22	-5	3
66	CCCOc1cccc(C(=O)NCCNC(=O)c2ccccn2)c1	5477	-3	6	9
67	CC(=NNC(=O)c1nn(C)c(C)c1Br)c1ccc(NC(=O)c2ccoc2C)cc1	.	.	4	2
68	CC(C)n1c(C(F)(F)F)nc2cc(C(=O)N3CCCCC3)ccc21	4607	-5	16	12
69	Cc1ccnc(NS(=O)(=O)c2ccc(CC(C)C)cc2)c1	12696	-4	3	-3
70	O=C(NCCc1ccc(Cl)cc1)C1CCC(=O)N1C1CCCC1 (stereo not drawn)	6369	2	5	4
71	CCN(CC)CCOc1ccccc1OC	5467	-1	-7	6
72	CC(C)Cn1c(N)c(C(=O)CSc2nccn2C)c(=O)n(C)c1=O	4650	8	5	0

cpd	Sa RN4220 lethal	ugtP null kill	PrP UTR inh
65	4.1	5	-19
66	5.7	0	-6
67	-2.1	0	.
68	5.6	8	14
69	1.4	9	-15
70	1.4	-3	-19
71	-1.0	4	-13
72	5.2	2	-11

# The list goes on.
cpd	Structure	Autofluor counter	BJeLR lethal	Mtb hypoxia inh	Mtb hypoxia inh growth
73	Cc1cc(NC(=O)c2cccs2)ccc1NC(=O)Cc1ccccc1	2899	-2	8	5
74	Cc1ccc(CSc2nnc(-c3cccnc3)o2)cc1	11423	-20	-81	-14
75	Cc1ccc(-c2nnc(SCc3ccc(C#N)cc3)n2Cc2ccco2)cc1	11430	8	8	8
76	COc1c(/C=N/NC(=O)c2ccccc2O)c(CCN(C)C(C)=O)cc2c1OCO2	2410	-2	.	.

cpd	Sa RN4220 lethal	ugtP null kill	PrP UTR inh
73	1.2	3	-16
74	3.5	6	-11
75	3.1	-1	-4
76	.	.	-2
